HNF4A DNA FP – change in binding of human HNF4 alpha to DNA; P41235; HNF4a-FITC DNA binding, fluorescence polarization, 1 h; activity change, % at 10 µM; 0.3% of 360,000 active; AID 1224865; in the data active means activity change above about 30%, passing the limit was not always enough;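 further: controls were the assay level and a saturating level of protein; the project sought stronger binding though the title names inhibitors; some compounds called inactive have numbers as strong as hits; positive values seem to mean higher polarization but the record does not say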
Ecoli rRNA inh – inhibitors of bacterial rRNA selective over humanized ribosomes; AID 720706; GFP signal change (wild-type ribosome), % (no concentration beside the values); 1.6% of 350,000 active; E. coli WT GFP vs humanized-ribosome RFP mutants, fluorescence, 24 h; hits give low values; DMSO median 0, no signal -100;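 active means significant combined selectivity score with lowered wild-type GFP, culture density cut under 30%, mutant RFP and density less affected; inactive means any of these conditions unmet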; further: one replicate is shown; some compounds called inactive have numbers as strong as hits
Vif TR-FRET – inhibitors of Vif binding to APOBEC3G peptide, primary screen, biochemical, TR-FRET, GST-Vif 1-94, biotin-A3G peptide, dose response retest (AID 1117319) | TR-FRET GST-Vif / biotin-A3G peptide binding; higher % means a stronger effect; test concentration not given here; strong numbers were not always called active | inhibition, %, or IC50 in µM where a hit was titrated | 0.57% of 260,000 active;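 active means above the screen mean plus three standard deviations and confirmed in dose response; inconclusive means results disagree or hit not tested in dose response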;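 further: Vif residues 1-94 fused to GST binding biotinylated APOBEC3G peptide 110-148; 0% = full assay without inhibitor and 100% = GST in place of GST-Vif; retest series ran down from 100 µM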
ALR inh – human ALR oxidase inhibition via reduced H2O2; 3.8% of 290,000 active; inhibition, % (no concentration beside the values); purified ALR, DTT oxidation, H2O2 HRP-luminol luminescence; P55789;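 active means mean and each replicate at 75% or more; inconclusive means only one of the two met; inactive means neither met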;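 further: stock transfer was 7.5 nL into about 7.5 µL; 0% = neutral wells and 100% = wells with inactivated enzyme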
Target sequence (P55789 whole entry, looked up): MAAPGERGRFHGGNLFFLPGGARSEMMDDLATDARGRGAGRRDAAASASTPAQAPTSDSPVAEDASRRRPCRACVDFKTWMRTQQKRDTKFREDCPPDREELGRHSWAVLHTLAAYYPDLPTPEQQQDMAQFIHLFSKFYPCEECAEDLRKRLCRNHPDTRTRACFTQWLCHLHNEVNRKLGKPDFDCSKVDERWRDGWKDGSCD
MLL AF4-AF9 inh – MLL-AF4/AF9 protein interaction inhibition; AlphaScreen, biotin-AF4 peptide binding to FLAG-AF9; inhibition, % at 10 µM; 0.47% of 350,000 active; AID 651704;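 active means every replicate reaching a set inhibition limit, whatever the replicate mean, cut at about 25% in these data; inconclusive means mean inhibition reaches that limit but some replicates miss it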;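 further: 0% = plate neutral control median and 100% = total signal loss; the record names both 10 and 1 µM as test concentration; the first replicate is given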
Target sequence (P42568 whole entry, looked up): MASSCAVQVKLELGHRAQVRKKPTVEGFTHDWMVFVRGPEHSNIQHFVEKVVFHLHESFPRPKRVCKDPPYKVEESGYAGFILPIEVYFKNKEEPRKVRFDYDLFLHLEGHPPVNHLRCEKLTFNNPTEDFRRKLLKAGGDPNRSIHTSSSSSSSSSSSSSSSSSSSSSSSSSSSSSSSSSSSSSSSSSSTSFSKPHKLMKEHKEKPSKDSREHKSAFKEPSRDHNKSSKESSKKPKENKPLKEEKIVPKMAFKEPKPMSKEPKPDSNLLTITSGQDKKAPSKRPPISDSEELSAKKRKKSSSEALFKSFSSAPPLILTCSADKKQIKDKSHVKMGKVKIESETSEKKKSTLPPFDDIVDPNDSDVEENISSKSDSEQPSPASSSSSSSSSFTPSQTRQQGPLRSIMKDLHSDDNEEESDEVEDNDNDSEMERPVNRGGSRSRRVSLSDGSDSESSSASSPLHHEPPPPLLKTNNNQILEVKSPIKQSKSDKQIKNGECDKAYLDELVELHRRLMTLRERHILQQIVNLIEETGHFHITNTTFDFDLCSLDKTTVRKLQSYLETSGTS
E coli growth – inhibitors of Escherichia coli growth; OD600, 23 h; hits give low values; AID 1053175; 0.21% of 330,000 active; OD600 absorbance (concentration not given with the values);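 active means OD600 absorbance below the run mean of sample wells minus 3.6 SD, in any replicate, cut at about 0.56 in these data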;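 further: stock transfer was 300 nL into about 60 µL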
FGF22 binding – FGF22 (human) thermal shift binding; recombinant FGF22 thermal shift, SYPRO orange fluorescence; percent of sucrose octasulfate shift, DMSO zero; calls only at 9.99 µM; 1.5% of 340,000 active; AID 651658;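 active means melting point raised past a set limit in the mean and every replicate; inconclusive means no clear call; three in four hits are not shown here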
Target sequence (Q9HCT0 whole entry, looked up): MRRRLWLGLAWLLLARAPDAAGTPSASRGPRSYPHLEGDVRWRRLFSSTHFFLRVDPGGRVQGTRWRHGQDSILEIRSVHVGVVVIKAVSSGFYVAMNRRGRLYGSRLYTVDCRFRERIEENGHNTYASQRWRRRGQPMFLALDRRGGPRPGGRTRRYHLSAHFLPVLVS
Ecoli rRNA inh OD600 – second read-out of Ecoli rRNA inh, no call of its own (marks repeat the call); OD600 change, %; measured here: OD600 growth;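 optical density of the mix in the first replicate; 0 = DMSO median and -100 = no signal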
Ecoli rRNA inh RFP – also measured in Ecoli rRNA inh; calls as there; RFP signal change, %; measured here: RFP humanized mutant strains;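 first replicate; 0 = DMSO median and -100 = no signal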
Starred values were filed as active, the others as inactive; i = inactive; ? = inconclusive; / = no result given; & = joins results of further samples.

SMILES	HNF4A DNA FP	Ecoli rRNA inh	Ecoli rRNA inh OD600	Ecoli rRNA inh RFP	Vif TR-FRET	ALR inh	MLL AF4-AF9 inh	E coli growth	FGF22 binding
O=C(NCC[C@H]1CC[C@@H](NC(=O)c2cnccn2)[C@@H](CO)O1)Nc1ccc(F)cc1	/	4	4	0.9	/	/	9.4	/	i
CC(C)(C)C(=O)[C@@H]1[C@@H]2C(=O)N(C3CCCCC3)C(=O)[C@@H]2[C@H]2c3ccccc3C=CN12	1.4	/	/	/	/	?	/	0.68	/
COc1ccc(CNS(=O)(=O)c2cc3c4c(c2)C(C)C(=O)N4CCC3)cc1 (centres undefined)	-2.0	1	3	-1.8	4%	-5	-4.3	0.74	i
Cc1ncccc1C(=O)N1CCCC(CNC(=O)c2ccc(-c3ccccc3)cc2)C1 (centres undefined)	-2.8	0	0	1.4	8%	-8	2.1	0.66	i
CC1CCN(S(=O)(=O)c2ccccc2[N+](=O)[O-])CC1	2.4	8	2	-0.7	5%	-12	-40	0.72	i
CC1(C(=O)NS(=O)(=O)c2cccc(OC(F)F)c2)CCN1C(=O)CC1CCCC1 (centres undefined)	0.0	7	9	-5.4	/	/	-3.4	/	i
Cc1cc(C)c(NS(=O)(=O)c2ccc(NC(=O)c3cccs3)cc2)c(C)c1	-4.5	/	/	/	?	-2	/	0.7	/
CCCN1C(=O)/C(=C/c2nc3ccccc3c(=O)[nH]2)c2ccccc21	2.9	13	0	-2.0	-12%	/	1.0	0.69	i
NC(COCc1ccccc1)c1csc(Nc2nncc3ccccc23)n1 (centres undefined)	8.3	/	/	/	/	/	2.0	/	i
Clc1ccc(-n2ncc3c(N4CCCC4)ncnc32)cc1	-2.8	/	/	/	0%	0	/	0.65	/
Cc1ccc2c(c1)CCCN2C(=O)c1ccc2c(c1)OCO2	4.0	/	/	/	?	-32	/	0.72	/
C#CCNC(=O)C1=C[C@H](c2ccccc2)[C@@H](CCCO)[C@H](OCC)O1	0.1	13	7	-2.5	?	-1	-14&-8.9	/	i
CC(=O)N1c2cc3ccccc3cc2N(C(C)=O)c2cc3ccccc3cc21	3.9	5	11	2.3	-14%	/	-2.1	0.66	i
CC(C)C(NC(=O)c1ccc(C(C)(C)C)cc1)C(=O)NCc1ccccn1 (centres undefined)	1.3	2	12	0.0	/	0	0.8	0.68	i
N#Cc1cccc(NC(=O)c2ccccc2C(=O)O)c1	-3.2	/	/	/	-2%	-7	/	0.67	/
Cc1ccc(-n2c(C)cc(C(=S)N3CCOCC3)c2C)cc1C	5.6	7	5	0.3	26%	-9	13	0.71	i
COc1ccc(NC(=O)CN2C(=O)NC3(CCCCCC3)C2=O)cc1Cl	-2.5	-3	-9	-1.1	5%	3	1.4	0.67	i
COc1ccc2c(c1)c(/C=C/c1cc[n+](C)cc1)cn2C	127	57	2	31	/	/	3.5	0.62	i
COc1cccc(/C=N/NC(=O)c2ccc(N3CCCC3=O)cc2)c1	3.7	-19*	-8.1*	0.6*	/	/	0.4	/	i
COc1ccccc1-c1cc2nc(NCc3cccc(Cl)c3)ccn2n1	-1.6	-18	-37	13	/	/	-5.9	/	i
O=[N+]([O-])c1cc(C(F)(F)F)cc([N+](=O)[O-])c1Sc1n[nH]c(C(F)(F)F)n1	4.7	-19	-1	-5.3	12%	-10	/	0.67	i
Cc1cc(C)c2oc(C(=O)N3CCN(C)CC3)cc(=O)c2c1	2.6	4	1	-1.0	4%	-3	-1.7	0.65	i
O=C(CSc1nc2ccccc2n1CC(=O)N1CCCC1)Nc1nccs1	-4.6	5	-8	-4.3	?	/	3.8	0.73	i
COc1cc(C=O)ccc1Oc1nnnn1-c1ccc(C(N)=O)cc1	0.0	/	/	/	-2%	0	/	0.62	/
NC(=O)CSc1nnc(-c2ccc(O)cc2)n1Cc1ccco1	0.1	/	/	/	-4%	-1	/	0.73	/
O=S(=O)(c1ccc(Oc2ccc(Cl)cc2)nc1)N1CCOCC1	1.2	8	5	-2.8	3%	-2	?	0.62	i
CN1CCN(C(=O)c2ccccc2NC(=O)C(C)(C)C)CC1	-0.8	/	/	/	0%	-6	/	0.69	/
CSc1ccccc1C(=O)NCc1ccccc1C	-4.0	-3	-3	-0.5	-8%	2	-1.5	0.65	i
CCOC(=O)C1CCN(S(=O)(=O)c2ccc3c4c(cccc24)C(=O)N3CC)CC1	-3.0	12	-40	-12	-1%	/	-15	0.7	i
O=S(=O)(c1ccc(F)c(F)c1)N1CCCc2ccccc21	0.3	-35	-44	-10	3%	-3	0.1	0.67	i

Reformatted with the structure last: 3 of the compounds above.
| HNF4A DNA FP | Ecoli rRNA inh | Ecoli rRNA inh OD600 | Ecoli rRNA inh RFP | Vif TR-FRET | ALR inh | MLL AF4-AF9 inh | E coli growth | FGF22 binding | Structure |
| --- | --- | --- | --- | --- | --- | --- | --- | --- | --- |
| 3.7 | -19* | -8.1* | 0.6* | / | / | 0.4 | / | i | COc1cccc(/C=N/NC(=O)c2ccc(N3CCCC3=O)cc2)c1 |
| -1.6 | -18 | -37 | 13 | / | / | -5.9 | / | i | COc1ccccc1-c1cc2nc(NCc3cccc(Cl)c3)ccn2n1 |
| 4.7 | -19 | -1 | -5.3 | 12% | -10 | / | 0.67 | i | O=[N+]([O-])c1cc(C(F)(F)F)cc([N+](=O)[O-])c1Sc1n[nH]c(C(F)(F)F)n1 |

Further compounds follow.
SMILES	HNF4A DNA FP	Ecoli rRNA inh	Ecoli rRNA inh OD600	Ecoli rRNA inh RFP	Vif TR-FRET	ALR inh	MLL AF4-AF9 inh	E coli growth	FGF22 binding
O=C(C[C@H]1CC[C@H]2[C@@H](COC[C@@H](O)CN2C(=O)c2ccccc2)O1)Nc1ccccc1	/	-3	6	-0.2	/	/	-2.5	/	i
Cc1ccc(Nc2c(F)c(F)c(F)c(F)c2C(=O)O)c(C)c1	-1.9	-42	-51	-11	1%	98*	-5.0	0.69	i
Nc1nc2c(s1)CCCCCCCCCC2	1.2	-50*	-37*	-16*	-3%	19	6.0	0.6	i
CCCCN1CC(COCc2ccccc2)Oc2cccc(Oc3ccc(C(C)C)cc3)c2S1(=O)=O (centres undefined)	3.0	/	/	/	1%	/	-4.5	/	i
O=C(Nc1cc(Cl)cc(Cl)c1)c1cccc(OC(F)F)c1	-2.1	/	/	/	17%	-10	/	0.61	/
COc1ccc(C(=O)N2C[C@@H]3[C@H](c4ccccc42)[C@H](CO)N3Cc2ccc(Cl)cc2)cc1	/	-39	-32	16	/	/	-1.1	/	i
COc1ccc(C2(c3ccc(OC)cc3)NC(=O)N(CC(=O)Nc3ccccc3C(F)(F)F)C2=O)cc1	0.6	0	-10	3.1	/	-3	-0.2	0.71	i
CC(=O)NC(c1ccccc1)c1nc(-c2ccc3ccccc3c2)cs1 (centres undefined)	-0.2	-1	-5	0.3	/	/	-1.8	/	i
CCOC(=O)c1cc(CO)cc(C(=O)OCC)c1	-1.7	15	8	3.3	-7%	-10	/	0.7	i
COc1ccccc1Nc1c2ccccc2nc2ccccc12	2.3	9	-56	2.2	-2%	99*	23	0.63	i
COc1ccc(N2C(=O)CC(NNc3ncc(Cl)cc3Cl)C2=O)cc1 (centres undefined)	1.6	-5	4	5.1	0%	84*	-5.0	0.72	i
COc1ccc(NC(=O)c2nc[nH]c2C(=O)N2CCN(c3ccccc3)CC2)cc1	-2.7	2	15	1.1	-8%	7	/	0.71	i
COc1ccccc1-n1cnnc1SCC(=O)Nc1ncc(Cl)cc1Cl	0.0	/	/	/	-1%	-8	/	0.74	/
COc1ccc(S(=O)(=O)N2CCN=C2SCc2cccc(C)c2)cc1	3.4	-16	-23	-0.2	-8%	-8	0.0	0.71	i
COc1ccc(Nc2nc(NC(C)(C)C)nc(N3CCOCC3)n2)c(OC)c1	6.8	-22	-35	-13	5%	1	19	0.68	i
Cc1ccc(NC(=O)c2ccccc2F)c(NC(=O)c2ccccc2F)c1	4.2	-20*	-8.4*	-2.3*	/	10	-3.6	0.67	i
Cc1ccc(NC(=S)N2CCN(c3ccccc3F)CC2)c(C)c1	1.7	19	16	3.9	-9%	-22	0.0	0.61	i
Cc1ccc(S(=O)(=O)N(C)C[C@H]2OCc3cnnn3CCCC(=O)N([C@@H](C)CO)C[C@@H]2C)cc1	/	-1	-9	-2.2	/	/	1.4	/	i
CCCC(=O)Nc1ccc2c(c1)C(=O)N(C)[C@@H]1CC[C@H](CC(=O)Nc3ccccc3)O[C@H]1CO2	/	2	2	-4.7	/	/	-1.9	/	i
CCOc1ccccc1NC(=O)CSc1nnnn1Cc1ccccc1	4.5	/	/	/	9%	-5	/	0.74	/
CCOC(=O)c1c(-c2cccc(N)c2)cn2ccccc12	-4.4	16	14	13	-4%	99*	-2.0	0.68	/
CCOC(=O)Cc1cnc(NC(=O)CSc2nc(C)c(CC)c(=O)[nH]2)s1	2.0	-4	0	3.6	-7%	99*	-1.8	0.7	/
Cc1c(Nc2ncccc2C(=O)O)cccc1C(F)(F)F	3.6	/	/	/	/	46	-3.5	0.69	i
CCCCOC(=O)Nc1cc(C)c(Cl)cc1OC	0.2	/	/	/	3%	-17	/	0.71	/
Cc1ccc(-c2ccc3c(c2)O[C@@H](CN(C)Cc2ccccc2)[C@@H](C)CN([C@@H](C)CO)S3(=O)=O)cc1	/	-1	-5	4.0	/	/	8.2	/	i
O=C(C1CC1)N1CCCCN2[C@H](C1)[C@H](c1ccc(C#CC3CCCC3)cc1)[C@@H]2CO	/	-55	-77	-2.8	/	/	4.4	/	i
C[C@@H](C(=O)N1CCN(C(=O)OC(C)(C)C)CC1)n1cc(CCCN=C(NC(=O)OC(C)(C)C)NC(=O)OC(C)(C)C)nn1	-0.5	4	8	-2.8	-6%	-5	-2.1	/	i
CCCCCCOC(=O)C(C#N)c1nc2ccccc2nc1N1CCN(C)CC1 (centres undefined)	4.8	/	/	/	-2%&3%	-34	/	0.68	/
CCCC(=O)Nc1ccc2c(c1)C(=O)N(C)[C@@H]1CC[C@@H](CC(=O)NC3CCCC3)O[C@@H]1CO2	/	-8	-5	-2.5	/	/	-1.7	/	i
COc1nccnc1NS(=O)(=O)c1ccc(NC(=O)c2ccc(F)cc2)cc1	0.9	-7	-12	3.2	/	10	8.3	0.66	i
CCc1nc(SCC(=O)Nc2ccc(C(=O)O)cc2)n[nH]1	0.5	5	10	-1.7	1%	99*	4.4	0.76	i
Fc1ccc(-c2noc(-c3ccc4c(c3)CCO4)n2)cc1	3.3	3	1	-3.0	0%	1	-0.9	0.71	i
C/C=C/c1ccc(C2[C@H]3CNC[C@@H]2N3C(=O)Nc2ccc3c(c2)OCO3)cc1 (some centres undefined)	/	-1&4	-10&-2	-1.5&-0.7	/	/	4.5	/	i
CCOc1ccc(CNC(=O)CCCC(=O)n2ncc3cc(C)ccc32)cc1	1.6	-3	10	-5.9	/	-12	3.2	0.8	i
O=C(Nc1ccc(N2CCN(C(=O)c3ccccc3)CC2)cc1)c1ccc(Br)o1	1.2	/	/	/	14%	2	/	0.75	/
COc1ccnc(NCc2ccc(Cl)cc2)c1C#N	1.9	-2	12	-1.6	0%	-5	/	0.69	/
Cc1ccc2[nH]c(=O)c(CNS(=O)(=O)c3ccccc3)c(-c3ccccc3)c2c1	1.9	/	/	/	21%	0	/	0.7	/
CC(NC(=O)CN1C(=O)COc2ccccc21)c1ccccc1 (centres undefined)	2.4	7	0	0.5	-3%	-3	-32	0.7	/
COc1cc2c(cc1OC)C(c1cc3ccc(C)cc3[nH]c1=O)N(C(=O)c1ccco1)CC2 (centres undefined)	-0.1	1	-1	2.4	/	-5	3.8	0.67	i
O=C(Nc1cccc([N+](=O)[O-])c1)c1cc(S(=O)(=O)N2CCOCC2)cs1	3.2	1	3	-1.5	/	-4	1.1	0.69	i

An excerpt. The share of hits here may be higher or lower than overall.
